VDR inh = Inhibitors of the vitamin D receptor (VDR): qHTS. Vitamin D3 receptor (Homo sapiens), P11473. VDR-SRC2-3 peptide fluorescence polarization, 2 h. Potency, µM, for inactives: max response, negative = inhibition, hits mostly inhibitors. 400,000 tested, 0.93% active. AID 504847, 2011; active = well fitted inhibition curve with a large enough effect; inconclusive = small, poorly fitted or top-dose-only effect, or another doubt; inactive = no such curve, though single readings can be large or run the other way; also: series mostly up to about 120 µM
Target sequence (P11473 whole entry, looked up): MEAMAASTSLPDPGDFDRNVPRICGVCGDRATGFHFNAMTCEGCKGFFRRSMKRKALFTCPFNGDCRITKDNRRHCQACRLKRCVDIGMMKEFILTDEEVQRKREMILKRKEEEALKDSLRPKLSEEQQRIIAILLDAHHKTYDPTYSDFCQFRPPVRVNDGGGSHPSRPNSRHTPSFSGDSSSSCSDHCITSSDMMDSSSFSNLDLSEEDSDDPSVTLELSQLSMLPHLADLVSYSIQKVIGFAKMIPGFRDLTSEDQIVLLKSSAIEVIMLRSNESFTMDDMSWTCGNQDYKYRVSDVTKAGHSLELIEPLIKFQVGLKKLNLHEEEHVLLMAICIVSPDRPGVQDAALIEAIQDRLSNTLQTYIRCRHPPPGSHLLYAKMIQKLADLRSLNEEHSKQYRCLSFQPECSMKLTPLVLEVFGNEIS
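Fluorescence polarization assay measuring small-molecule disruption of VDR binding to the coregulator peptide SRC2-3. Compounds were pin-transferred (23 nl) into the reagent mix and incubated 2 h at room temperature before reading.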
The depositor's hits bear a star; ? = inconclusive; & = joins results of further samples; [ ] = dose if it differs, or a comment. % is scaled to controls: 0 for no effect and ±100 for the full control effect; potency is read from the fitted curve at half-maximal effect. These rows are one share of the data; the hit share may differ from the screen's.

The opening 7 records as a preview:
VDR inh | SMILES
-8% | O=C(CN1CCOCC1)Nc1ccccc1NC(=O)C1CCN(c2ncccn2)CC1
-3% | C/C(CC(=O)Nc1cccc(C(F)(F)F)c1)=N\NC(=O)c1cnccn1
8% | COc1ccc2c(c1)c1c(c(=O)n(-c3cccc(Cl)c3)c(=O)n1CC(=O)N1CCCC1)n2C
-2% | O=C(CCn1c2c(c3ccccc31)CCCC2)NNC(=O)c1ccccc1Cl
-2% | NS(=O)(=O)c1ccc(CCNC(=O)c2ccc(Cl)nc2)cc1
-8% | CC(C)C1(c2ccsc2)NC(=O)NC1=O (configuration not stated)
7% | CCC(Sc1nc2cc(OC)c(OC)cc2c(=O)n1CCc1ccc(S(N)(=O)=O)cc1)C(=O)NCCOC (configuration not stated)

The whole of this part (from the top)
VDR inh | SMILES
-8% | O=C(CN1CCOCC1)Nc1ccccc1NC(=O)C1CCN(c2ncccn2)CC1
-3% | C/C(CC(=O)Nc1cccc(C(F)(F)F)c1)=N\NC(=O)c1cnccn1
8% | COc1ccc2c(c1)c1c(c(=O)n(-c3cccc(Cl)c3)c(=O)n1CC(=O)N1CCCC1)n2C
-2% | O=C(CCn1c2c(c3ccccc31)CCCC2)NNC(=O)c1ccccc1Cl
-2% | NS(=O)(=O)c1ccc(CCNC(=O)c2ccc(Cl)nc2)cc1
-8% | CC(C)C1(c2ccsc2)NC(=O)NC1=O (configuration not stated)
7% | CCC(Sc1nc2cc(OC)c(OC)cc2c(=O)n1CCc1ccc(S(N)(=O)=O)cc1)C(=O)NCCOC (configuration not stated)
17% | CCCC(C)NC(=O)/C=C/c1cccc([N+](=O)[O-])c1 (configuration not stated)
7% | COc1ccc(N2CCN(c3cc(C)nc4nc(-c5ccc(C)cc5)nn34)CC2)cc1
5% | Cc1c(C)c2ccc(OC(C)C(=O)NCc3ccccn3)cc2oc1=O (configuration not stated)
8% | Cc1ccc(C)c(N2CCN(S(=O)(=O)c3ccc4c(c3)C(C(C)C)C(=O)N4)CC2)c1 (configuration not stated)
13% | O=C(CCC(=O)OCC(=O)c1ccc(Cl)cc1Cl)Nc1cccc2cccnc12
15% | COc1cccc(NC(=O)CN2C(=O)C(=O)N(C3CCCC3)C2=O)c1
-7% | COc1cccc(CNc2ccc(F)c(Cl)c2)c1O
5% | COc1ccccc1C(=O)NCCC(=O)NC1CCCCC1C (configuration not stated)
-14% | CCOC(=O)N[C@H](Cc1c[nH]c2ccccc12)C(=O)NC1CC1
? | CCOC(=O)Cn1cc(/C=C/[N+](=O)[O-])c2ccccc21
-6% | CC(=O)c1ccccc1NC(=O)CC1(CC(=O)O)CCCCC1
11% | Cc1ccc2nc(C)cc(C(=O)N3CCCC(CO)(Cc4ccccc4C)C3)c2c1 (configuration not stated)
8% | COc1ccc(-c2nc(NC(=O)c3nc4nccc(C)n4n3)sc2C)cc1
3% | Cc1ccc(NC(=S)N/N=C2/CCCc3c(C)cc(C)cc32)cc1
-4% | O=C(Cc1coc2cc(O)ccc12)NNC(=O)c1cccs1
-13% | O=C(COc1ccc(Br)cc1)NCCNC(=O)c1cccnc1
? | COc1ccc(C2C(C#N)=C(N)Oc3c2c(C)nn3-c2ccccc2)cc1Cn1nc(C)c([N+](=O)[O-])c1C (configuration not stated)
-12% | O=C(c1ccccc1)c1ccc(OCC(O)CNC2CCCc3ccccc32)cc1 (configuration not stated)
-22% | O=c1[nH]c2cc3c(cc2cc1CN(CCN1CCOCC1)C(=S)NCC1CCCO1)OCO3 (configuration not stated)
7% | CC1CCCN(CCCNC(=O)c2cc(Sc3ccc(F)cc3)nc3ccccc23)C1 (configuration not stated)
-3% | COc1ccc(-n2c(N3CCN(C)CC3)nc3sc4c(c3c2=O)CCCCC4)cc1
2% | O=C(COc1ccccc1)Nc1ccccc1C(=O)NCc1ccco1
7% | CCC(=O)NC(NC(=O)CC)C(Cl)Cl
12% | CCOC(=O)c1cc(C)n(CC2CCC(C(=O)Nc3cc(OC)cc(OC)c3)CC2)c1C (configuration not stated)
-6% | CCCCN1CN=C(Nc2nc3ccccc3o2)NC1
-5% | COc1ccccc1N1CCN(C(=O)c2ccc(NC(C)=O)cc2)CC1
-5% | Cc1ccc(-c2nnn(CC(=O)N(Cc3ccco3)C(C(=O)NC(C)(C)C)c3ccncc3)n2)o1 (configuration not stated)
-2% | N#CCCn1c(=O)c(-c2ccc(F)cc2)nc2cnc(N3CCNCC3)nc21
-10% | CC(C)(C)N1C(=O)c2ccc(C(=O)Nc3ccc(O)cc3)cc2C1=O
? | Cc1ccccc1NC(=O)CSc1nnc(-c2ccco2)c(-c2ccco2)n1
-11% | NC(=O)c1nsc(C(=O)N(c2ccc(F)cc2)C(C(=O)NCC2CCCO2)c2c[nH]c3ccccc23)c1N (configuration not stated)
-26% | O=C(Oc1cccc(NC(=O)c2cccs2)c1)c1cccc(S(=O)(=O)N2CCCC2)c1
10% | CCCN1CCN(C(=O)Nc2cccc(C(F)(F)F)c2)CC1
-6% | COc1ccc(-n2c(N)c(C(=O)NCc3cccnc3)sc2=S)cc1
1% | N#C/C(=C\Nc1ccc(Cl)cc1)S(=O)(=O)c1ccccn1
64%[activator] | CC1(O)CC(C)(C)C(C#N)C(=O)N1 (configuration not stated)
-4% | O=C(O)CCN1C(=O)C2C3C=CC(C3)C2C1=O (configuration not stated)
-1% | Cc1ccccc1/C=C\c1nc2ccccc2c(=O)n1Cc1ccccc1
13% | CCOc1ccccc1N(CC(=O)NC1CCCCC1)S(=O)(=O)c1ccc(C)cc1
-8% | O=C(COC(=O)CN1C(=O)C2CCCCC2C1=O)NNC(=O)c1ccc(Cl)cc1 (configuration not stated)
-9% | CC(C)Cn1c2c(c(O)c(C(=O)Nc3nccs3)c1=O)CCCC2
7% | O=C(Nc1cccc(F)c1)C1CCCN(S(=O)(=O)c2cnc[nH]2)C1 (configuration not stated)
-27% | O=C(Cc1ccccc1)Nc1c(C(=O)N2CCCCCC2)cnn1-c1ccccc1
4% | CCCNC(=O)c1nn2cc(Br)cnc2c1Br
-6% | Cc1cccc(NC(=O)c2cc(-c3cc(C)cc(C)c3O)n[nH]2)c1
15% | O=[N+]([O-])c1ccc(S(=O)(=O)N2CCN=C2SCc2cccnc2)cc1
3% | COCCN(C(=O)COC(=O)c1oc2ccc(OC)cc2c1C)c1c(N)n(Cc2ccccc2)c(=O)[nH]c1=O
7% | CC1(C)Cc2ccccc2-c2nnc(SCC(=O)N3CCc4ccccc43)n21
-11% | COc1c(C)cc(Br)cc1C(=O)Nc1ccc(Cc2ccncc2)cc1
7% | CCCC(=O)NC(=S)Nc1ccc(NC(=O)C(C)C)c(OC)c1
-17% | O=C(C[C@H]1C/C=C\C[C@@H](Cc2ccc(F)cc2)C(=O)O[C@H](c2ccccc2)CNC1=O)NCCO
-9% | BrC(=C\c1ccccc1)/C=N/N1CCN(Cc2ccccc2)CC1
11% | COc1ccc(-c2csc3ncnc(Nc4ccc(OC)c(OC)c4)c23)cc1

Next compounds.
VDR inh | SMILES
-8% | CC(=O)c1ccc2oc3ccccc3c(=O)c2c1
11% | Cc1cc(/C=C(\C#N)C(=O)NCCc2c[nH]c3ccccc23)c(C)n1C
-7% | C(=N\Nc1nc2ccccc2s1)/c1cccs1
6% | N#CCSc1nnc(Cc2cccs2)n1C1CCCCC1
5% | CC(CCc1ccccc1)NC(=O)CNC(=O)COc1ccccc1 (configuration not stated)
5% | COc1cc(S(=O)(=O)Nc2cc(C)cc(C)c2)ccc1F
23% | Cc1cc(C(=O)COC(=O)CNC(=O)c2ccc(Cl)c(Cl)c2)c(C)n1Cc1ccco1
-6% | Cc1cccc(NC(=O)Cn2c(=O)n(CCC(C)C)c(=O)c3cccnc32)c1
13% | NS(=O)(=O)c1ccc(CNC(=S)Nc2ccc(F)c(Cl)c2)cc1
? | COc1cccc(/C=C/C(=O)OCC(=O)NCCC2=CCCCC2)c1
-6% | COC(=O)c1c(NC(=O)COC(=O)Cn2cnc3ccccc32)sc(C)c1C
9% | O=C(N/N=C/C=C/c1cccc([N+](=O)[O-])c1)C(O)c1ccccc1 (configuration not stated)
-2% | CCn1cc(C(=O)OCC(=O)Nc2c(C)cccc2C)c(=O)c2ccc(C)nc21
-4% | Cc1ccc(S(=O)(=O)N2CCCC(C(=O)NCC3CCCO3)C2)cc1 (configuration not stated)
5% | CCCCn1c(C(C)NC(=O)COC)nc2ccccc21 (configuration not stated)
22% | COc1ccc(C(=O)Nc2cc3c(cc2OC)CCCC3)cc1Br
17% | O=S(=O)(NCCOc1ccccc1Cl)c1ccc2oc3ccccc3c2c1
7% | COc1cc2[nH]c(=O)n(CCCC(=O)NCCc3ccccc3)c(=O)c2cc1OC
3% | CC(=O)Nc1ccc(S(=O)(=O)NNC(=O)c2ccc([N+](=O)[O-])cc2)cc1
-2% | COc1ccccc1CNC(=O)c1ccc(N2Cc3cccc(OC)c3Oc3ncccc32)s1
16% | c1ccc(CCCCNCC2COc3ccccc3O2)cc1 (configuration not stated)
25% | Cc1cc2nc(C3CCN(C(=S)NCC(C)C)CC3)[nH]c2cc1C
5% | CCOc1ccc(CNC(=O)CCc2c(C)nn(-c3ccc(N4CCOCC4)nn3)c2C)cc1
4% | O=C(CSc1nncn2c1cc1sccc12)Nc1ccccc1C(F)(F)F
-28% | O=C(O)CC(C(=O)NC1CCCCC1)C1CCCO1 (configuration not stated)
-15% | COCCSc1ccccc1C(=O)Nc1cc(C)ccn1
2% | O=S(=O)(NC1CC1)c1ccc(S(=O)(=O)N2CCN3CCCC3C2)cc1 (configuration not stated)
-9% | CCOC(=O)c1c(C)n(C)c2cc(Br)c(C)cc12
20% | Cc1ccc(NC(=O)CSc2nccn2C)cc1F
-19% | Cc1cc(S(=O)(=O)N2CCOCC2)ccc1OCC(=O)NCc1ccco1

Rewritten as tab-separated lines: entries from further up
SMILES	VDR inh
CCCCn1c(C(C)NC(=O)COC)nc2ccccc21 (configuration not stated)	5%
COc1ccc(C(=O)Nc2cc3c(cc2OC)CCCC3)cc1Br	22%
O=S(=O)(NCCOc1ccccc1Cl)c1ccc2oc3ccccc3c2c1	17%
COc1cc2[nH]c(=O)n(CCCC(=O)NCCc3ccccc3)c(=O)c2cc1OC	7%
CC(=O)Nc1ccc(S(=O)(=O)NNC(=O)c2ccc([N+](=O)[O-])cc2)cc1	3%
COc1ccccc1CNC(=O)c1ccc(N2Cc3cccc(OC)c3Oc3ncccc32)s1	-2%
c1ccc(CCCCNCC2COc3ccccc3O2)cc1 (configuration not stated)	16%

(more compounds)
VDR inh | SMILES
-20%&6% | COc1cccc(-c2cc(C(=O)N3CCN(c4ccccc4OC)CC3)no2)c1
-7% | CCCc1cc(=O)n2[nH]c(-c3cc(OC)c(OC)c(OC)c3)nc2n1
12% | CCOC(=O)n1c(=O)n(Cc2c(Cl)cccc2Cl)c2ccccc21
19% | CN(C)c1ccc(/C=N/NC(=O)CN(c2ccccc2Cl)S(C)(=O)=O)cc1Br
-13% | Cc1ccc(NC(=O)CSc2nnc(NC(=O)c3ccc(S(=O)(=O)N4CCOCC4)cc3)s2)cc1
-2% | CC(C)(C)NC[C@H](O)CSc1nc(-c2ccc(C(N)=O)s2)cs1
1% | CC1=CC2(C)C(C3C(C)=CC2(C)C(=O)C3(C)O)C(C)(O)C1=O (configuration not stated)
17% | O=C(NCc1cccc(OC(F)(F)F)c1)c1ccc2c(c1)S(=O)(=O)c1cc(Cl)ccc1C2=O
-21% | CC1=C(C(=O)OCC2CCCO2)C(c2ccccc2OC(C)C)C2=C(CC(c3ccco3)CC2=O)N1 (configuration not stated)
0% | CCC(C)n1c(=S)[nH]c2ccccc2c1=O (configuration not stated)
-13% | Cc1ccc(S(=O)(=O)CCC(=O)OCc2ccccc2F)cc1
2% | Cc1ccc(C2CC(c3cccs3)=NN2C(=O)CSC2=NN3CCCC(=O)N=C3S2)cc1 (configuration not stated)
17% | COc1cc2c(cc1OC)CN(Cc1ccc(OC)c(C)c1OC)CC2
-2% | CCOC(=O)c1cccc(NC(=O)c2oc3c(c2C)-c2[nH]ncc2CC3)c1
-1% | O=C1NCCN/C1=C\C(=O)c1ccccc1
-8% | Cc1ccc(C(=O)Cn2nnc(-c3ccccc3-n3cnnn3)n2)cc1
16% | CCOc1cc(CNc2ccccc2)cc(Br)c1OCC(=O)NC(C)(C)C
-16% | O=C(c1csnn1)N1CCC2(CCN(Cc3cc(C(F)(F)F)cc(C(F)(F)F)c3)CC2)CC1
-7% | CCOC(=O)/C(C(=Nc1ccccc1)Nc1ccccc1)=C(\C)O
2% | COC(=O)c1ccc(Nc2nc(-c3ccccc3Cl)nc3ccccc23)cc1
-2% | CCc1cccc(C)c1NS(=O)(=O)c1cccs1
? | COc1ccc(C(=S)N2CCOCC2)cc1OC(=O)c1cc(OC)c(OC)c(OC)c1
-31% | CCCC(=O)C1=C(O)C(C(=O)OC)C(C)(C)CC1=Nc1ccc(Br)cc1 (configuration not stated)
0% | CC(Sc1nnc2n1CCCCC2)C(=O)Nc1ccc(S(N)(=O)=O)cc1 (configuration not stated)
-13% | COC(=O)c1c(NC(=O)CC2Nc3ccccc3NC2=O)sc(C)c1C (configuration not stated)
4% | COc1ccc2nc3c(cc2c1)c(NC(=O)C1CCCO1)nn3CC(C)C (configuration not stated)
5% | Cc1ccc(OCCn2c(SCCO)nc3c(N)ncnc32)cc1
39%[activator] | CCOC(=O)c1c(NC(=O)CSc2nnc(-c3ccccc3)o2)sc(C(C)=O)c1C
6% | Cc1ccc(CNC(=O)CCC(=O)N2CC(C)Oc3ccccc32)cc1 (configuration not stated)
4% | COc1ccccc1N1CCN(CC(O)c2c(C)[nH]c3ccccc23)CC1 (configuration not stated)
-1% | CCC1(C)CC(C(CC(=O)O)c2ccc(C)cc2)CCO1 (configuration not stated)

Three entries out of the list, arranged by SMILES length, largest number first.
VDR inh | SMILES
-20%&6% | COc1cccc(-c2cc(C(=O)N3CCN(c4ccccc4OC)CC3)no2)c1
-7% | CCOC(=O)/C(C(=Nc1ccccc1)Nc1ccccc1)=C(\C)O
-1% | O=C1NCCN/C1=C\C(=O)c1ccccc1
